RE007 growth inh – qHTS Assay for Inhibitors of the HIV-1 protein Vpr | AID 651644, 2012 | 0.21% of 360,000 active | Potency, µM (series often up to 92.2 µM), for inactives: at the highest dose activity change, negative = less growth | S. pombe RE007 Vpr strain, BacTiter-Glo ATP luminescence, 24 h; control for the full effect not named in the record; active = well fitted falling curve with a large enough effect; inconclusive = small, poorly fitted or top-dose-only effect; inactive = no such curve, though single readings can be large or run the other way;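 note: % is set by controls: 0 for no effect and ±100 for the full control effect; nearly all actives have a fitted effect of over 50% in size; the assay follows cell death caused by Vpr and the record does not say whether a fall means rescue or toxicity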
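Fission yeast strain RE007, carrying one chromosomally integrated HIV-1 vpr copy, was seeded at OD 0.01 in PMG+AL medium with 23 nL pinned compound. After 24 h at 30 °C and 99% humidity, viability was read by BacTiter-Glo luminescence.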
2A StopGo – High Throughput Screening for Foot and Mouth Disease Virus Antivirals; human cells with a luciferase reporter of 2A StopGo recoding; control for the full effect not named in the record; Potency, µM (highest dose often 57.9 µM), for the others: top-dose signal change, negative = less light; 1.2% of 410,000 active; AID 1159524, 2015; active = well fitted falling curve with a large enough effect; inconclusive = small, poorly fitted or top-dose-only effect; inactive = no such curve, though single readings can be large or run the other way; tested in HEK293T cells; note: % is set by controls: 0 for no effect and ±100 for the full control effect; nearly all actives have a fitted effect of over 45% in size; luciferase light after 4 h
Marburg entry inh – qHTS for inhibitors of binding or entry into cells for Marburg Virus. Marburg virus pseudotyped entry inhibition, cell reporter; control for the full effect not named in the record; about a third of the inactives were read at about 46 µM. Potency, µM (doses to about 37.8 µM), without a hit: top-dose activity change, negative = inhibition, most hits filed as inhibitors. 1.8% of 300,000 active. AID 540276, 2011; active = well fitted inhibition curve with a large enough effect; inconclusive = small, poorly fitted or top-dose-only effect, or effect the other way; inactive = flat fitted curve, though single readings scatter; tested in HEK293 cells; about a fifth of its hits are not listed in these tables; note: % is set by controls: 0 for no effect and ±100 for the full control effect; luciferase read-out
Cruzain Triton – qHTS Assay for Promiscuous and Specific Inhibitors of Cruzain (with detergent); Cruzipain (Trypanosoma cruzi), P25779; purified cruzain, Z-FR-AMC fluorescence, 0.01% Triton; Potency, µM, for the others: max response, negative = inhibition, most hits filed as inhibitors; 0.43% of 200,000 active;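 note: plate controls were neutral wells for no effect and buffer without enzyme for full effect; nearly all actives have a fitted effect of over 40% in size; top concentration of the series not given in the record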
Target sequence (P25779 123-467 limits assumed): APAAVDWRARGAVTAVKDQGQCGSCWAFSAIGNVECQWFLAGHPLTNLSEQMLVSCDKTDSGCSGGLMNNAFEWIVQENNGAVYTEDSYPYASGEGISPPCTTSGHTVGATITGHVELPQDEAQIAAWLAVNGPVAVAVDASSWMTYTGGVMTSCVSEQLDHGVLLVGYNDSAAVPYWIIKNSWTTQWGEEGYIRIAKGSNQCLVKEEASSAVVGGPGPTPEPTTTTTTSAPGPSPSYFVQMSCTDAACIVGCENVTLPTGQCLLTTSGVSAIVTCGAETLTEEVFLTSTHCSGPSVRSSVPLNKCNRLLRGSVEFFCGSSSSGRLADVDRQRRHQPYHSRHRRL
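In this qHTS format, compounds are incubated with 1.5 nM cruzain for 15 min at room temperature before 2 uM Z-FR-AMC is added. Release of AMC is followed at 360/450 nm, and progress is taken as the 60 s fluorescence difference.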
Cruzain inh noDet – qHTS Assay for Promiscuous and Specific Inhibitors of Cruzain (without detergent) | Cruzipain (Trypanosoma cruzi), P25779 | purified cruzain, Z-FR-AMC fluorescence, no detergent | Potency, µM, without a hit: max response, negative = inhibition, hits mostly inhibitors | 2.3% of 200,000 active;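 note: plate controls were enzyme without inhibitor for no effect and buffer without enzyme for full effect; nearly all actives have a fitted effect of over 40% in size; top concentration of the series not given in the record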
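Detergent-free condition (0.00005% Triton X-100) in acetate buffer pH 5.5 with DTT. 1.5 nM enzyme and compound were pre-mixed 15 min, then 2 uM Z-FR-AMC substrate added; reaction progress from fluorescence change between first and third reads (60 s).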
SARS PLpro yeast – qHTS of Yeast-based Assay for SARS-CoV PLP; S. cerevisiae expressing SARS-CoV PLpro, growth rescue; control for the full effect not named in the record; Potency, µM (series often up to 32.9 µM), without a hit: at the highest dose activity, positive = growth rescue; 0.19% of 330,000 active; active means well fitted rising curve with a large enough effect; inconclusive means small, poorly fitted or top-dose-only effect; inactive means no such curve, though single readings can be large or run the other way; note: 0% is about no effect; nearly all actives have a fitted effect of over 55% in size; growth read by luminescence after 48 h
Lassa entry inh – qHTS for Inhibitors of binding or entry into cells for Lassa Virus; AID 540256, 2011; Lassa virus pseudotype entry inhibition, cell reporter; control for the full effect not named in the record; 1.2% of 300,000 active; Potency, µM (doses to about 37.9 µM), inactives show at the highest dose activity change, negative = inhibition, usual class: inhibitors; active means well fitted inhibition curve with a large enough effect; inconclusive means small, poorly fitted or top-dose-only effect, or effect the other way; inactive means flat fitted curve, though single readings scatter; tested in HEK293 cells; note: % is set by controls: 0 for no effect and ±100 for the full control effect; nearly all actives have a fitted effect of over 50% in size; luciferase read-out
NS1 function inh – qHTS Assay for Inhibitors of Influenza NS1 Protein Function; S. cerevisiae slowed by influenza A NS1, growth recovery by OD600; Potency, µM (titrated, usually from 46.1 µM), without a hit: at the top dose activity, positive = more growth; 0.4% of 270,000 active; active means well fitted rising curve with a large enough effect; inconclusive means small, poorly fitted or top-dose-only effect; inactive means no such curve, though single readings can be large or run the other way; note: nearly all actives have a fitted effect of over 50% in size
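A cell-based growth assay was used: compounds that relieve NS1-induced slow growth of budding yeast raise OD600. Assay medium was yeast nitrogen base with ammonium sulphate and -URA supplement, pH 6.0, with 2% galactose.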
Numbers without * were called inactive; ? = inconclusive; nt = not tested or not shown; & = joins results of further samples; [ ] = another dose, or the depositor's remark. Unless noted, calls come from the whole dose curve; as a rule, active = well fitted curve in the direction sought with a large enough effect; inconclusive = small, poorly fitted or top-dose-only effect, or another doubt; inactive = no such curve, though single readings can be large; an effect the other way counts as inactive or inconclusive. Potency is the fitted concentration of half-maximal effect.

SMILES	RE007 growth inh	2A StopGo	Marburg entry inh	Cruzain Triton	Cruzain inh noDet	SARS PLpro yeast	Lassa entry inh	NS1 function inh
COC(=O)c1ccc(CNC(=O)COC(=O)C2CCC(C(C)(C)C)CC2)cc1 (configuration not stated)	-7%	0%	4%	-5.3%	?	2%	-27%	11%
COC(=O)c1sccc1NC(=S)NCc1ccc(Cl)cc1	6%	4%	-1%	nt	nt	3%	9%	-3%
CCOc1ccc(CCNC(=O)COC(=O)c2ccc(S(=O)(=O)N3CCCC3)cc2)cc1OCC	-2%	4%	6%[46.1 µM]	nt	nt	0%	2%	nt
C/C(CC(C)(C)c1ccccc1)=N\NS(=O)(=O)c1ccccc1	17%	0%	-4%[14.2 µM]	nt	nt	1%	-19%	3%
Cc1ccc(NC(=S)NC2CC3CCCC(C2)N3Cc2cccs2)cc1 (configuration not stated)	-4%	nt	?	2.3%	1%	-6%	?	0%
CCCCn1c(=O)[nH]c(=O)c2c1nc(-c1cccc(OC)c1)n2C	5%	-8%	nt	nt	nt	3%	18%	12%
N#C/C(C(=O)N1CCCC1)=C1/N=C(N)c2ccccc21	3%	-18%	-4%	-6.8%	-23%	1%	6%	21%
Cc1ccc(C#CC[N+]2(CC#Cc3ccc(C)cc3)CCCCC2)cc1	6%	?	-1%	-1.6%	1%	2%	nt	0%
CCOc1ccc(C(=O)C(C)OC(=O)Cn2c(C)csc2=O)cc1 (configuration not stated)	-4%	10%	?	nt	nt	-1%	20%	nt
CC(C)Cn1c(N)c(C(=O)COC(=O)c2ccccc2F)c(=O)n(C)c1=O	-8%	-5%	-1%[46.1 µM]	nt	nt	-1%	-25%[46.1 µM]	nt
CNc1oc(-c2ccccc2F)nc1S(=O)(=O)c1ccc(C)cc1	6%	6%	1%	nt	nt	-6%	10%	1%
Cc1ccc(S(=O)(=O)NCC2CCC(C(=O)O)CC2)cc1 (configuration not stated)	14%	-15%	-2%	2.6%	-12%	-6%	1%	-6%
COc1ccc(C(=O)Nc2cc(Cl)ccc2OC(=O)c2ccc(OC)cc2)cc1	1%	nt	?	3.9%	3%	1%	?	-5%
COc1ccccc1Oc1ccccc1[N+](=O)[O-]	42%	24%	13%[46.1 µM]	nt	nt	-2%	7%	1%
Cc1ccc(CNCc2c(C(=O)O)c(C)n(Cc3ccc(C)cc3)c2C)cc1	nt	-13%	1%[46.1 µM]	-3.5%	-3%	nt	19%[46.1 µM]	nt
O=C(CNC(=O)c1ccccc1Cl)NCC(c1cccs1)N1CCOCC1 (configuration not stated)	0%	-18%	9%	nt	nt	-1%	13%	nt
COc1ccc(Cc2nnc(SCc3nc4ccccc4c(=O)[nH]3)o2)cc1	-13%	nt	0%	0.7%	-7%	4%	0%	?
O=C(O)c1ccc(/C=C/c2nc3ccccc3c(=O)[nH]2)cc1	3%	5%	nt	nt	nt	1%	nt	-2%
O=[N+]([O-])c1ccc(O)c(C=Nc2cccc3ncccc23)c1	?	6%	?	nt	nt	0%	-11%[46.1 µM]	nt
COc1ccc(-c2nn(CCC#N)cc2C=C(C#N)C#N)cc1	-4%	-26%	nt	nt	nt	1%	nt	2%
C/C=C/C=C/C(=O)Nc1nccs1	-7%	49%[activator]	19%	-3.3%	15%	6%	?	23%
COc1ccc(NC(=O)CN(C)C(=O)C2CC(=O)N(c3ccc4c(c3)OCCO4)C2)cc1 (configuration not stated)	-15%	-16%	8%	nt	nt	-2%	19%[46.1 µM]	nt
N/C(=N\OC(=O)CCC1CCCC1)c1ccncc1	8%	0%	16%[46.1 µM]	nt	nt	-2%	11%	2%
Cc1ccc(SCc2noc(-c3c(C)noc3C)n2)cc1	7%	-2%	?	nt	nt	-4%	1%	-4%
FC(F)(F)c1cccc(Cc2noc(CN3CCC(N4CCCCC4)CC3)n2)c1	6%	-4%	3%[46.1 µM]	nt	nt	0%	0%[46.1 µM]	0%
Cc1ccc(NC(=O)CSc2nnnn2C2CC2)cc1S(=O)(=O)N1CCOCC1	-1%	-14%	-14%	nt	nt	-2%	2%[46.1 µM]	nt
Cc1ccc(S(=O)(=O)NNC(=O)c2ccc(O)cc2)cc1	11%	34%[activator]	11%	-1.8%	-3%	-3%	-2%	-11%
Cn1c(N)c(C(=O)N/N=C/c2ccccc2)sc1=S	9%	5%	?	nt	nt	0%	-2%	5%
CCOC(=O)c1c2c3c(cccc3[nH]c1=O)C(=O)c1ccccc1-2	6%	-9%	-5%[46.1 µM]	nt	nt	0%	-1%	nt
COc1ccc(C(=O)Cn2cc([N+](=O)[O-])nc2C)cc1	-3%	-3%	2%[46.1 µM]	nt	nt	-4%	?	-5%
Cc1ccc(S(=O)(=O)C2(S(=O)(=O)c3ccc(C)cc3)CC2)cc1	17%	?	11µM*	nt	nt	-8%	?	-74%
COc1ccccc1NC(=O)CSc1ccc2nnc(-c3ccncc3)n2n1	8%	-22%	nt	-0.2%	-25%	-8%	nt	-127%
Nn1c(SCC(=O)NCCC2=CCCCC2)nnc1-c1cccnc1	5%	-20%	0%	nt	nt	1%	17%	nt
Clc1ccc2c(N/N=C/c3ccccc3Br)ccnc2c1	-1%	0%	?	?	-15%	-87%	-1%	-14%
CS(=O)(=O)N(Cc1nnc(-c2cccs2)o1)c1ccc(Cl)cc1F	-2%	-8%	1%	2.3%	-10%	-2%	7%	-11%
Cc1cccnc1NC(=O)Nc1cccc2ccccc12	-5%	7%	16%	3.3%	?	-4%	-6%	-2%
Cc1ccc2c(c1)cc(C(=O)Nc1ccc(F)cc1F)n2C	nt	-18%	-7%[46.1 µM]	-1.7%	7%	nt	0%[46.1 µM]	nt
CSc1ncc(Cl)c(C(=O)O)n1 (tested in a mixture with another compound)	-6%	-7%	?	0.8%	0%	4%	-11%	-1%
CCCN(C(=O)C(NC(=O)c1ccccc1)C(C)C)c1c(N)n(Cc2ccccc2)c(=O)[nH]c1=O (configuration not stated)	9%	0%	-1%	nt	nt	5%	12%	nt
Nc1ccccc1N=Cc1c(O)n(CCC2=CCCCC2)c(=O)[nH]c1=O	-7%	72%[activator]	7%	-1.9%	-25%	-8%	?	6%
NS(=O)(=O)c1ccc(CCNS(=O)(=O)c2cccc(C(=O)O)c2)cc1	6%	-7%	nt	nt	nt	0%	nt	6%
Cc1cccc(NC(=S)NC2CC3CCCC(C2)N3CC(C)C)c1 (configuration not stated)	6%	4%	?	0.7%	-2%	-3%	-25%	-8%
COc1ccc(OC)c(S(=O)(=O)n2ccc(C)n2)c1	3%	-11%	-3%[46.1 µM]	nt	nt	0%	-4%[46.1 µM]	-2%
COc1ccccc1CNS(=O)(=O)c1ccc(F)c(C(=O)Nc2cc(Cl)ccc2OC)c1	nt	29%	nt	2.4%	7%	nt	8%[46.1 µM]	nt
CC(C)c1cc(CNC(=O)CCc2nnc(CCCc3ccccc3)o2)on1	3%	54%[activator]	nt	nt	nt	1%	nt	-5%
Cc1cccc(C(=O)N[C@H](C(=O)Nc2ccc(S(=O)(=O)NC3=NCCCCC3)cc2)C(C)C)c1	6%	10%	-14%[46.1 µM]	nt	nt	1%	?	6%
CCN(CC(=O)Nc1c(F)cccc1F)C(=O)c1cccc(S(=O)(=O)N2CCN(c3ccccc3)CC2)c1	-8%	-27%	?	nt	nt	?	?	-17%
Cc1ccc2cc3c(NC(=O)c4ccco4)nn(C)c3nc2c1	6%	-17%	-43%	-7.3%	?	-5%	?	-61%
COCCNC(=O)c1cccc(OC2CCN(C(C)COc3ccccc3)CC2)c1 (configuration not stated)	1%	-18%	nt	nt	nt	2%	nt	-17%
CCC(=O)N(CCC1(C(C)C)CCOC(C)(C)C1)Cc1ccco1 (configuration not stated)	3%	-6%	-14%	3.0%	16%	-5%	-12%	10%
CCOc1ccc(CNC(=O)CSc2cc(=O)n(CC)c3ccccc23)cc1	nt	37%[activator]	-1%[46.1 µM]	-1.1%	8%	nt	-9%[46.1 µM]	nt
Cc1cccc(C(=O)N(Cc2ccco2)c2c(N)n(Cc3ccccc3)c(=O)[nH]c2=O)c1	-19%	-4%	?	nt	nt	-5%	3%	nt
COc1cccc(C(=O)Nc2cc(-c3ccccc3)no2)c1	nt	-41%	?	-13%	-18%	nt	2%[46.1 µM]	nt
COc1ccc(NC(=O)NNC(=O)COc2ccc3ccccc3c2)cc1	-6%	-18%	-6%	nt	nt	2%	20%	4%
Cc1ccc(Sc2ccc(/C=N/O)cc2[N+](=O)[O-])cc1	30%	-21%	?	-12%	-3%	nt	?	-2%
Cc1ccc(C)c(NC(=O)Cn2cc(S(=O)(=O)N3CCCC3)c(S(=O)(=O)N3CCCC3)c2)c1	nt	1%	nt	-1.7%	4%	nt	20%[46.1 µM]	nt
COc1ccc(N(CC(=O)N2c3ccccc3CC2C)S(=O)(=O)c2c(C)noc2C)cc1 (configuration not stated)	-6%	-27%	-13%&-13%	-2.9%	15%	7%	-10%	8%
O=C(NN1C(=O)C2C3C=CC(C3)C2C1=O)c1ccco1 (configuration not stated)	-1%	-18%	2%	-2.9%	-3%	15%	-4%	2%
Cc1cccc(NC(=O)COC(=O)c2ccc(S(=O)(=O)N3CCCC3)cc2)c1	4%	-16%	-5%	nt	nt	-5%	2%	nt
COc1ccc(NC(=O)CSCc2cc(=O)n3ccsc3n2)cc1	-1%	0%	nt	nt	nt	-25%	nt	12%

(list continues)
SMILES	RE007 growth inh	2A StopGo	Marburg entry inh	Cruzain Triton	Cruzain inh noDet	SARS PLpro yeast	Lassa entry inh	NS1 function inh
COc1ccc(NC(=O)c2cc(S(=O)(=O)NCCC3=CCCCC3)ccc2F)cc1	nt	-8%	nt	0.1%	8%	nt	?	nt
O=C(Nc1ccccc1C(=O)NCCN1CCOCC1)c1ccco1	-12%	-26%	21%	7.1%	3%	3%	10%	?
O=C(COC(=O)c1ccccc1Br)NC1CCCC1	-10%	51%[activator]	?	nt	nt	0%	13%[46.1 µM]	-2%
O=C(COC(=O)Cn1nc(-c2ccccc2)oc1=O)Nc1ccc(F)cc1	13%	-24%	-10%	nt	nt	-4%	19%	nt
Cc1nc(Cl)nc(N(C)c2ccccc2)c1[N+](=O)[O-]	-24%	-19%	20%[46.1 µM]	nt	nt	-1%	17%[46.1 µM]	-30%

Bioassay records deposited in PubChem BioAssay by National Center for Advancing Translational Sciences (NCATS).
